rRNA inh HTS: reduced GFP signal of wild-type E. coli, primary screen, bacterial rRNA inhibitor project, GFP/RFP fluorescence, OD600, single point; E. coli WT GFP vs humanized-ribosome RFP mutants, 24 h; active compounds read low; DMSO median 0, no signal -100; GFP signal change (wild-type ribosome), % (no concentration beside the values); 1.6% of 350,000 active;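 active = significant combined selectivity score with lowered wild-type GFP, culture density cut under 30%, mutant RFP and density less affected; inactive = any of these conditions unmet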; note: one replicate is shown; some compounds called inactive have numbers as strong as hits
rRNA inh HTS OD600: recorded beside rRNA inh HTS, whose call it bears; OD600 change, %; measured here: OD600 growth;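 optical density of the mix in the first replicate; 0 = DMSO median and -100 = no signal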
rRNA inh HTS RFP: further read-out of rRNA inh HTS, marked with its call; RFP signal change, %; measured here: RFP humanized mutant strains;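 first replicate; 0 = DMSO median and -100 = no signal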
Active calls of the source: *; i = inactive; . = no result given. Some of the compounds tested; count on the stated rates, not on these rows.

SMILES	rRNA inh HTS	rRNA inh HTS OD600	rRNA inh HTS RFP
Cc1cccc(-n2c(C)nc3cc(C(=O)NCCN4CCOCC4)ccc32)c1	-2	3	0.0
O=C(c1ccccc1F)N1CC[C@@H]2[C@@H](CO)Nc3ccc(-c4cccc(F)c4)cc3[C@@H]21	-38	-71	-2.5
C[C@@H]1CCCCO[C@@H](CN(C)C(=O)Cc2ccccc2)[C@@H](C)CN([C@H](C)CO)C(=O)c2cc(NC(=O)c3ccncc3)ccc2O1	0	9	-2.7
C[C@@H]1CN([C@H](C)CO)C(=O)c2cc(NC(=O)Nc3ccccc3)ccc2O[C@H]1CN(C)C	3	7	0.5
COc1ccc(S(=O)(=O)N(C)C[C@@H]2OCCCC[C@H](C)Oc3ccc(NC(=O)Nc4ccc(C(F)(F)F)cc4)cc3C(=O)N([C@@H](C)CO)C[C@@H]2C)cc1	i	.	.
CC1(C(=O)Nc2cccc(NS(C)(=O)=O)c2)Cc2c(-c3ccc(C(N)=O)cc3)ccnc2O1 (stereo unspecified)	5	24	16
CCCc1nc2c3ccccc3ccn2c1Cc1cccc(F)c1	-59	-78	-21
C[C@H](CO)N1C[C@H](C)[C@@H](CN(C)C(=O)c2ccc3c(c2)OCO3)Oc2ncc(C#Cc3ccccc3F)cc2C1=O	-1	-9	8.3
COc1ccc(C#Cc2ccc([C@H]3[C@H]4CN(C(=O)C5CCOCC5)CC(=O)N4[C@H]3CO)cc2)cc1	1	6	2.8
COc1cccc(C(O)c2ncc(-c3cccc(C(F)(F)F)c3)[nH]2)c1 (stereo unspecified)	-59	-78	-16
COc1cccc(S(=O)(=O)N[C@H]2C=C[C@@H](CC(=O)NCc3ccccc3)O[C@@H]2CO)c1	3	6	-1.6
CC(=O)N(C)C[C@H]1Oc2cc(C#CC3CC3)ccc2S(=O)(=O)N([C@H](C)CO)C[C@H]1C	-1	0	-3.3
CC(C)C#Cc1ccc([C@@H]2[C@H](CO)N3C(=O)CN(C(=O)c4ccccn4)C[C@@H]23)cc1	1	-4	-2.9
COc1ccc2c3c(n(C)c2c1)[C@H](CO)N(C(=O)CC1CC1)CC31CN(Cc2ccccc2)C1	-2	-2	4.7
C[C@@H]1CN([C@@H](C)CO)C(=O)c2cccc(NC(=O)Nc3ccc(F)cc3)c2O[C@H]1CN(C)S(=O)(=O)c1ccc(Cl)cc1	8	9	0.9
CC(c1ccc(Cl)cc1)N(CCN(C)C)c1ccccn1 (stereo unspecified)	-4	0	-0.3
C[C@H]1CCCCO[C@@H](CN(C)C(=O)Nc2cccc3ccccc23)[C@@H](C)CN([C@@H](C)CO)C(=O)c2cc(NS(=O)(=O)c3cn(C)cn3)ccc2O1	0	-14	8.2
CC(C)C#Cc1ccc2c(c1)O[C@H](CN(C)C(=O)c1cccc(F)c1)[C@H](C)CN([C@@H](C)CO)S2(=O)=O	0	0	3.7
CCOC(=O)C1(C)CCCN(C(=O)c2c(F)ccc(C)c2F)C1 (stereo unspecified)	-4	2	3.0
COc1ccc(NC(=O)Nc2ccc3c(c2)CC(=O)N([C@H](C)CO)C[C@H](C)[C@H](CN(C)C)O3)cc1	0	2	-1.9

Ordered by number of heavy atoms (high to low): 10 of the compounds above.
SMILES	rRNA inh HTS	rRNA inh HTS OD600	rRNA inh HTS RFP
C[C@H]1CCCCO[C@@H](CN(C)C(=O)Nc2cccc3ccccc23)[C@@H](C)CN([C@@H](C)CO)C(=O)c2cc(NS(=O)(=O)c3cn(C)cn3)ccc2O1	0	-14	8.2
C[C@H](CO)N1C[C@H](C)[C@@H](CN(C)C(=O)c2ccc3c(c2)OCO3)Oc2ncc(C#Cc3ccccc3F)cc2C1=O	-1	-9	8.3
CC(C)C#Cc1ccc2c(c1)O[C@H](CN(C)C(=O)c1cccc(F)c1)[C@H](C)CN([C@@H](C)CO)S2(=O)=O	0	0	3.7
COc1ccc(NC(=O)Nc2ccc3c(c2)CC(=O)N([C@H](C)CO)C[C@H](C)[C@H](CN(C)C)O3)cc1	0	2	-1.9
COc1ccc2c3c(n(C)c2c1)[C@H](CO)N(C(=O)CC1CC1)CC31CN(Cc2ccccc2)C1	-2	-2	4.7
COc1cccc(S(=O)(=O)N[C@H]2C=C[C@@H](CC(=O)NCc3ccccc3)O[C@@H]2CO)c1	3	6	-1.6
CC(C)C#Cc1ccc([C@@H]2[C@H](CO)N3C(=O)CN(C(=O)c4ccccn4)C[C@@H]23)cc1	1	-4	-2.9
COc1cccc(C(O)c2ncc(-c3cccc(C(F)(F)F)c3)[nH]2)c1 (stereo unspecified)	-59	-78	-16
CCOC(=O)C1(C)CCCN(C(=O)c2c(F)ccc(C)c2F)C1 (stereo unspecified)	-4	2	3.0
CC(c1ccc(Cl)cc1)N(CCN(C)C)c1ccccn1 (stereo unspecified)	-4	0	-0.3

Later entries.
SMILES	rRNA inh HTS	rRNA inh HTS OD600	rRNA inh HTS RFP
COCc1cc(N2CCN(C(=O)OC(C)(C)C)C[C@H]2C)ccc1N1CCN(Cc2ccccc2)[C@H](C)C1	4	9	-5.4
N#C[C@H]1[C@H](c2ccccc2)[C@H](CO)N1C(=O)C1CCCC1	2	3	0.3
CC(C)NC(=O)N(C)C[C@@H]1Oc2ncc(C3=CCCCC3)cc2C(=O)N([C@@H](C)CO)C[C@@H]1C	0	18	-2.6
C[C@@H]1CN([C@@H](C)CO)C(=O)c2cc(NS(=O)(=O)c3ccc(F)cc3)ccc2O[C@@H]1CN(C)C(=O)NC1CCCCC1	-4	0	-0.7
CC(=O)N(C)C[C@@H]1Oc2ncc(-c3ccccc3F)cc2C(=O)N([C@H](C)CO)C[C@H]1C	-3	3	-0.7
C(=C\c1ccccc1)/CN1CCN(C(CCc2ccccc2)c2nnnn2C2CCCC2)CC1 (stereo unspecified)	-33	-59	17
C[C@@H]1CN([C@@H](C)CO)C(=O)c2ccccc2-c2ccccc2CO[C@@H]1CN(C)C(=O)[C@H]1CCCN1C	-1	6	0.0
O=C(NCc1ccccc1)[C@H]1[C@H](CO)[C@H]2Cn3c(cccc3=O)[C@@H]1N2C(=O)CC1CC1	1	10	-0.1
C[C@@H]1CN([C@H](C)CO)C(=O)Cc2cc(NS(C)(=O)=O)ccc2O[C@H]1CN(C)Cc1ccncc1	2	-7	-0.4
COc1ccc(NS(=O)(=O)c2ccc(C)c(C(=O)NCCCn3ccnc3)c2)cc1	10	9	2.7
CC(C)(C)n1nnnc1C(c1ccccc1OC(F)(F)F)N1CCN(C/C=C/c2ccccc2)CC1 (stereo unspecified)	-18	-24	1.2
CC(=O)N1CC(=O)N2[C@H](C1)[C@@H](c1ccc(C#CC(C)C)cc1)[C@@H]2CO	4	18	-2.8
C[C@H]1CN([C@@H](C)CO)C(=O)Cc2cc(NS(=O)(=O)c3cn(C)cn3)ccc2O[C@@H]1CN(C)S(C)(=O)=O	8	18	0.0
CC1=C(C#N)C(=O)NC1(C)O (stereo unspecified)	12	15	9.3
CC(=O)NC[C@H]1[C@H](c2ccc(-c3cccnc3)cc2)[C@@H](CO)N1C(=O)C1CC1	0	0	-0.5
CCS(=O)(=O)N1CCCCN2[C@H](C1)[C@@H](c1ccc(-c3cccc(C#N)c3)cc1)[C@@H]2CO	-2	3	5.9
CCCNC(=O)C[C@@H]1CC[C@@H]2[C@@H](COc3ccc(NC(=O)NCCC)cc3C(=O)N2C)O1	3	6	-1.7
C[C@H](CO)N1C[C@H](C)[C@@H](CN(C)C(=O)Nc2cccc3ccccc23)Oc2ccc(NC(=O)C3CCCCC3)cc2CC1=O	1	-7	0.8
O=C(NCc1ccc(F)cc1)c1cc(C2CCCN(S(=O)(=O)c3ccccc3)C2)on1 (stereo unspecified)	3	13	1.0
COCC(=O)N1CC[C@@H]2[C@H]1c1cc(C#Cc3ccc(F)cc3)ccc1N[C@@H]2CO	-9	-17	0.2
Cc1ccc(NC(=O)C2(C)CCCN(C(C)C)C2)cc1C (stereo unspecified)	19	23	1.3
CCS(=O)(=O)N1CC(=O)N2[C@H](C1)[C@H](c1ccc(-c3ccc(F)cc3)cc1)[C@@H]2CO	-2	2	0.4
CNC[C@@H]1OCCCC[C@@H](C)Oc2ccc(NC(=O)Nc3c(C)noc3C)cc2C(=O)N([C@H](C)CO)C[C@@H]1C	4	5	-2.2
COc1ccc2c3c(n(C)c2c1)[C@H](CO)N(C(=O)c1ccccc1)CC31CCN(C)CC1	4	20	-4.5
COc1ccc(NC(=O)N(C)C[C@@H]2Oc3c(NS(=O)(=O)c4cccs4)cccc3C(=O)N([C@@H](C)CO)C[C@H]2C)cc1	-4	-1	-2.5
C[C@H](CO)N1C[C@H](C)[C@@H](CN(C)C(=O)Nc2cccc3ccccc23)Oc2ccc(NS(=O)(=O)c3ccc(F)cc3)cc2C1=O	-1	0	3.0
C[C@H](CO)N1C[C@H](C)[C@@H](CN(C)C(=O)c2ccc(F)cc2)Oc2ncc(C#CC3CC3)cc2C1=O	-3	1	2.0
C[C@H](CO)N1C[C@H](C)[C@H](CN(C)C(=O)Cc2ccncc2)Oc2ncc(C#Cc3ccccc3F)cc2C1=O	3	-1	1.4
COCC(=O)N1[C@H](CO)[C@@H](c2ccccc2C2=CCCCC2)[C@@H]1C#N	-5	9	-1.6
CC(=O)N(C)C[C@@H]1Oc2cc(-c3ccc(C)cc3)ccc2S(=O)(=O)N([C@@H](C)CO)C[C@@H]1C	-10	-15	0.1
COc1ccc(CNC(=O)C[C@@H]2CC[C@H]3[C@H](COc4ccc(NC(C)=O)cc4C(=O)N3C)O2)cc1	-2	1	-4.0
COCc1cn(CC[C@H]2CC[C@@H](NC(=O)Nc3ccc(OC)cc3)[C@@H](CO)O2)nn1	4	7	-3.3
O=C(Nc1cc(F)ccc1F)N[C@@H]1CC[C@@H](CCn2cc(C3CCCC3)nn2)O[C@@H]1CO	2	-9	-1.8
CCc1ccc(C(O)c2ncc(-c3ccccc3C(F)(F)F)[nH]2)cc1 (stereo unspecified)	4	-3	0.1
C[C@@H]1CN([C@@H](C)CO)C(=O)Cc2cc(NC(=O)CCCN(C)C)ccc2O[C@H]1CN(C)S(=O)(=O)c1cccs1	-1	7	1.6
COc1ccc(-c2[nH]nc3nc(N4CCN(C(=O)c5ccoc5)CC4)cc(C(F)(F)F)c23)cc1	-10	-21	-1.8
C[C@@H]1CN([C@H](C)CO)C(=O)c2cc(NS(=O)(=O)c3cn(C)cn3)ccc2O[C@H]1CN(C)CC1CC1	3	3	-2.2
C[C@H](CO)N1C[C@H](C)[C@H](CN(C)C(=O)C2CCCCC2)OCCCC[C@H](C)Oc2ccc(NC(=O)C3CCCCC3)cc2C1=O	-6	-5	1.3
COc1ccc2c3c([nH]c2c1)[C@H](CO)N(Cc1cccc(F)c1)CC31CN(C(C)=O)C1	-5	5	3.9
CN1[C@H](C(=O)NCc2ccc(F)cc2)[C@@H](CO)[C@@H]2Cn3c(ccc(-c4ccccc4F)c3=O)[C@@H]21	-5	-9	-0.4
C[C@H]1CN([C@@H](C)CO)C(=O)c2cc(-c3cncnc3)cnc2O[C@@H]1CN(C)C(=O)Nc1ccc2c(c1)OCO2	2	6	-3.3
C[C@@H]1CN([C@H](C)CO)C(=O)c2cc(NC(=O)C3CCCCC3)ccc2O[C@@H](C)CCCCO[C@H]1CN(C)C(=O)Nc1ccccc1	3	4	-0.7
CO[C@@H]1CN(C)C(=O)c2ccc(NS(=O)(=O)c3ccccc3)cc2OC[C@H](C)N(C)C[C@@H]1C	0	2	2.1
COc1ccc2c3c(n(C)c2c1)[C@@H](CO)N(C(=O)CC1CC1)CC31CN(Cc2nccs2)C1	-5	-8	0.7
CCCc1c(C(=O)N/N=C(\CC)c2ccccc2)nnn1-c1nonc1N	2	5	0.4
COCOCCn1cc(CN2CCS(=O)(=O)N(Cc3ccc(-c4ccc(OC)nc4)cc3)C(C(C)C)C2=O)nn1 (stereo unspecified)	-14	-12	5.3
C[C@H]1CN([C@@H](C)CO)C(=O)CCCn2cc(nn2)CO[C@H]1CN(C)C(=O)Oc1ccccc1	1	12	0.6
COC(=O)[C@]12CCCCC=C1N(CCc1ccc(OC)c(OC)c1)C(=O)[C@H](CC(=O)NCc1ccccc1)C2	-21	-18	4.2
CCCN(C)C[C@H]1OCCCC[C@H](C)Oc2ccc(NS(=O)(=O)c3ccc(C)cc3)cc2C(=O)N([C@@H](C)CO)C[C@H]1C	-1	-2	-0.1
COc1ccc(C#Cc2ccc3c(c2)O[C@H](CN(C)C(=O)NC2CCCCC2)[C@@H](C)CN([C@H](C)CO)S3(=O)=O)cc1	0	6	-1.0
Next part:
SMILES	rRNA inh HTS	rRNA inh HTS OD600	rRNA inh HTS RFP
Cc1noc(C)c1S(=O)(=O)Nc1ccc2c(c1)CC(=O)N([C@H](C)CO)C[C@H](C)[C@@H](CN(C)Cc1ccncc1)O2	-5	6	-0.6
COc1ccc([C@H]2CC=CC[C@@H](C)Oc3ccccc3C(=O)N(C)[C@H](Cc3ccccc3)C(=O)N2)c(OC)c1 (mixture of isomers)	-5	2	-5.8
COc1ccc(C2NC(=O)c3ccccc3N2)c(OC)c1OC (stereo unspecified)	-10	-15	-1.9
C[C@H]1CN([C@@H](C)CO)C(=O)Cc2cc(NS(=O)(=O)c3cccs3)ccc2O[C@H]1CN(C)Cc1ccc(-c2ccccc2)cc1	1	-2	2.0
CC(C)NC(=O)Nc1cccc2c1O[C@H](CN(C)S(=O)(=O)c1ccccc1)[C@@H](C)CN([C@@H](C)CO)C2=O	0	4	-0.6
CCCN1C[C@H](C)[C@H](OC)CN(C)C(=O)c2cc(NS(=O)(=O)c3ccccc3)ccc2OC[C@@H]1C	3	3	0.4
